MbtI inh: MbtI salicylate synthase inhibition | purified MbtI enzyme, fluorescence intensity read-out | P9WFX0 | actives 0.89% (n = 100,000) | inhibition, %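 (about 17 µg/mL by stock and volumes)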;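 active means above 50% in both replicates, above 80% if mildly self-fluorescent; inactive means the rest, strongly fluorescent compounds included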;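 further: 0% = mean of negative and 100% = mean of positive controls; one replicate is shown; some compounds called inactive have numbers as strong as hits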
Target sequence (P9WFX0 whole entry, looked up): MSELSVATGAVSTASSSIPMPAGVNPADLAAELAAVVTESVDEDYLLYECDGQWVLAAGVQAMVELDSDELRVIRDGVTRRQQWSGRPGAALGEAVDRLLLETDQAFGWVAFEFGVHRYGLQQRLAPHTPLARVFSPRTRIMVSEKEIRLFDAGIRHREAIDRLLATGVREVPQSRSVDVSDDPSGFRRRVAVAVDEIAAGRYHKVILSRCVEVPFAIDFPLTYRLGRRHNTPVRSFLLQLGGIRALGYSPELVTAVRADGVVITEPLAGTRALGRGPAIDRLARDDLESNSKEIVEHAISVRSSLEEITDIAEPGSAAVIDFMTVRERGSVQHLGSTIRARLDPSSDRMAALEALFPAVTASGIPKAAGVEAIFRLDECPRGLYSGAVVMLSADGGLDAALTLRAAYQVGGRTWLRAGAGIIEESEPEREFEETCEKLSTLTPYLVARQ
Polio RdRp inh: inhibitors of poliovirus RNA polymerase binding and polymerization; P03300; poliovirus polymerase elongation, fluorescence polarization; hits give low values; % elongation, % (compound at 16.7 µg/mL); AID 588519; actives 0.66% (n = 150,000); in the data active means % elongation below about 90%; further: some results filed as inactive read as strong as hits
Target sequence (P03300 1749-2209 limits assumed): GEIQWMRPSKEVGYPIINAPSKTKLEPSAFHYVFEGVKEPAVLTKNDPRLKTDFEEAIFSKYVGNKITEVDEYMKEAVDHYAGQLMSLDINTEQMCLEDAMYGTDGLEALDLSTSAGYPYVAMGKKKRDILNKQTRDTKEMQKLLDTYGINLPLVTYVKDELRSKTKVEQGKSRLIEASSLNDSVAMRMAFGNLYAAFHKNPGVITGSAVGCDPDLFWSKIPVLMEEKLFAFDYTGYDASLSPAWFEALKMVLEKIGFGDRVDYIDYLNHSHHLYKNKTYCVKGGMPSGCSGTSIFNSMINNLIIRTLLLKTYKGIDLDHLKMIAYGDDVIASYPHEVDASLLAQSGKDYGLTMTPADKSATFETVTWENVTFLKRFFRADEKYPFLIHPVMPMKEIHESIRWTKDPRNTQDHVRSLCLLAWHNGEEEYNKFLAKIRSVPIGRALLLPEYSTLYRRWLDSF
MenB inh: blocks the Mycobacterium tuberculosis MenB enzyme. P9WNP5. MenB enzyme assay, absorbance read-out; some hits fall short of the stated cut. inhibition, %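 (about 12 µg/mL by stock and volumes)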. actives 0.43% (n = 100,000). AID 540299;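 active means mean of two replicates above 30%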;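 further: 0% = no compound and 100% = wells with inactive enzyme; the first replicate is given; strong numbers were not always called active; inactives centre near -10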
Polio RdRp inh intensity: recorded beside Polio RdRp inh, whose call it bears; % elongation; measured here: total intensity read-out; formula for this scale not given here;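 total fluorescence in place of polarization; lower means less elongation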
* marks the source's active call; other numbers are inactive results; . = no result given; & = joins results of further samples.

1) Cc1ccc(C2CCN(C(=S)NCc3ccccc3)C2)cc1 (configuration not stated)
2) O=C1Nc2ccccc2N(O)N1c1ccccc1Cl
3) O=C(O)CCNC(=O)C(c1ccccc1)c1ccccc1
4) O=S(=O)(NCCO)c1cccc2cccnc12
5) COc1ccc(-c2noc(CC(=O)NCCN(C)C)n2)cc1
6) Nc1nc(CSCc2ccco2)nc(N2CCCCC2)n1
7) Cc1ccc2nc(SC(C)C(=O)NCc3ccco3)[nH]c2c1 (configuration not stated)
8) COc1cccc(CNC(=O)CN(C)S(=O)(=O)c2ccc3c(c2)CC(C)N3C(C)=O)c1 (configuration not stated)
9) CS(=O)(=O)N1CCc2cc(C(=O)N3CCCC3)ccc21
10) CCOC(=O)c1cccc(C(=O)OCC)n1

Assay by compound | 1 | 2 | 3 | 4 | 5 | 6 | 7 | 8 | 9 | 10
MenB inh | -40 | -4 | -81 | -15 | -24 | -68 | -31 | -32 | 0 | 0
MbtI inh | -4 | -5 | -10 | -2 | -5 | -8 | 8 | -7 | -9 | -6
Polio RdRp inh intensity | 103 | 102 | 97 | 102 | 104 | 98 | 109 | 98 | 102 | 103
Polio RdRp inh | 101 | 101 | 104 | 101 | 101 | 105 | 104 | 105 | 101 | 103

11) COc1ccccc1/C(O)=C/C(=O)C(=O)Nc1sc2c(c1C#N)CCC2
12) COc1ccc(N2CCN(CCN)CC2)cc1
13) O=C(O)C1CCCN1S(=O)(=O)c1ccc2ccccc2c1 (configuration not stated)
14) c1ccc(OCCSC2=NCCN2)cc1
15) CC(=O)N1c2ccccc2C(=O)C1Sc1nc(C)cc(C)n1 (configuration not stated)
16) CSc1ccccc1NC(=O)C1COc2ccccc2O1 (configuration not stated)
17) Cc1ccc(C(=O)CSc2nc(C)cc(C)c2C#N)cc1
18) CCc1ccc(NS(=O)(=O)c2cc(Br)cnc2N)cc1
19) CCc1c(C)sc(NC(=O)c2cc(CC(C)C)on2)c1C#N
20) Clc1cccc(Cl)c1CN(Cc1ccccc1)c1ncnc2nc[nH]c12

Assay by compound | 11 | 12 | 13 | 14 | 15 | 16 | 17 | 18 | 19 | 20
MenB inh | -16 | -9 | -69 | -37 | -29 | -27 | -6 | -28 | -3 | -8
MbtI inh | -7 | -37 | -6 | 89* | 1 | -13 | -12 | -22 | 73 | .
Polio RdRp inh intensity | 98 | 105 | 101 | 98 | 102 | 101 | 103 | 104 | 101 | 103
Polio RdRp inh | 102 | 101 | 105 | 101 | 104 | 100 | 101 | 102 | 100 | 98

21) Cc1cc(C)nc(NS(=O)(=O)c2ccc(NC(=O)CN3C(=O)C4CC=CCC4C3=O)cc2)n1 (configuration not stated)
22) COc1ccc(N(C)C(=O)Cc2c(C(=O)O)[nH]c3ccccc23)cc1
23) Cc1[nH]n(-c2ccccc2)c(=O)c1CC(=O)O
24) COc1ccc(C(c2c(C)[nH]c3ccccc23)N2CCOCC2)cc1 (configuration not stated)
25) CC1(C)CC(C)(O)P(C)(=O)O1 (configuration not stated)
26) COc1ccc(Cl)cc1S(=O)(=O)N1CCC(c2nnc(-c3ccc(C)cc3)o2)CC1
27) O=C(O)CC(Sc1ncnc2sc3c(c12)CCCC3)C(=O)O (configuration not stated)
28) Cc1ccc2nc(Cl)c(/C=N/NC(=O)c3cccnc3)c(=O)n2c1
29) CCc1ccc(C2Nc3ccccc3NC3=C2C(=O)CC(C)(C)C3)cc1 (configuration not stated)
30) O=C(COC(=O)c1ccco1)Nc1ccc(Br)cc1

Assay by compound | 21 | 22 | 23 | 24 | 25 | 26 | 27 | 28 | 29 | 30
MenB inh | 4 | -7 | 18 | -18 | 3 | -77 | -18 | -39 | -35 | -2
MbtI inh | -13 | 11 | 2 | 26 | 12 | 41 | 11 | -32 | . | 5
Polio RdRp inh intensity | 115 | 106 | 100 | 102 | 104 | 108 | 111 | 104 | 95 | 108
Polio RdRp inh | 106 | 102 | 100 | 102 | 100 | 101 | 107 | 107 | 102 | 102

31) CCCCc1nc2sc3c(Cl)ncnc3c2c2c1COC(C)(C)C2
32) N/C(CCN1CCOCC1)=N/O
33) CCOC(=O)C1Sc2nnc(C)n2NC1c1ccc2c(c1)OCO2 (configuration not stated)
34) Clc1ccc2ncnc(NCc3ccc4c(c3)OCO4)c2c1
35) CN(Cc1ccccc1)C1CCN(CCc2ccccc2)CC1
36) S=c1[nH]nc(NNc2ccccc2)n1Nc1ccccc1
37) Cc1cccc2c1-c1sc(C(=O)N3CCN(c4ccc(Cl)cc4)CC3)cc1CO2
38) O=C(NCc1ccccc1)NC1(C(=O)NCC2CCCO2)CCCCC1 (configuration not stated)
39) COc1ccc(Oc2nccnc2C#N)cc1
40) Clc1cccc(CNCc2cccs2)c1

Assay by compound | 31 | 32 | 33 | 34 | 35 | 36 | 37 | 38 | 39 | 40
MenB inh | -9 | 29 | -11 | -10 | 11 | 15 | -40 | -23 | -13 | 38*
MbtI inh | 5 | -1 | -7 | -25 | -11 | 22 | -5 | -7 | -4 | 1
Polio RdRp inh intensity | 99 | 103 | 103 | 101&101 | 104 | 101 | 101 | 101 | 102 | 99
Polio RdRp inh | 97 | 102 | 103 | 102&101 | 100 | 102 | 97 | 102 | 100 | 102

41) CC(C)(CO)NC(=O)c1cc(-c2ccc(Cl)cc2Cl)on1
42) Cc1ccc(NC(=S)NCCN(C2CCCCC2)C2CCCC2)cc1
43) COc1ccc(OC)c(NC(=O)c2oc3ccccc3c2NC(=O)CC(C)(C)C)c1
44) CN(C=O)CP(=O)(O)CN1CCOCC1
45) CC(=O)n1cc(-c2ccncc2)c2ccccc21
46) CCn1c(SCc2ccccc2OC)nc2cc(S(N)(=O)=O)ccc21
47) CCC(=O)N1CCc2cc(S(=O)(=O)Nc3ccccc3OC)ccc21
48) Cc1ccc(C(=O)CC2OC(=O)c3ccccc32)o1 (configuration not stated)
49) CCOc1ccc(Oc2ccc(N)cc2)cc1
50) Cc1ccc(C(=O)c2cc(C)sc2NC(=O)CN2CCN(C(=O)c3ccco3)CC2)cc1

Assay by compound | 41 | 42 | 43 | 44 | 45 | 46 | 47 | 48 | 49 | 50
MenB inh | 15 | -10 | -2 | 18 | 3 | -7 | -22 | -30 | . | 18
MbtI inh | -1 | -14 | 11 | -4 | -38 | -1 | -6 | 13 | -2 | 6
Polio RdRp inh intensity | 101 | 102 | 103 | 102 | 100 | 104 | 105 | . | 102 | 101
Polio RdRp inh | 100 | 100 | 101 | 103 | 99 | 103 | 103 | . | 100 | 102

51) Cc1cc(=O)oc2ccc(OC(=O)CC(C)C)cc12
52) O=C(c1cccs1)N1CCCC(c2nc3c(nnn3Cc3ccc(F)cc3)c(=O)[nH]2)C1 (configuration not stated)
53) CCn1cc(C(=O)NC2CCCC(C)C2C)c2cc(OC)c(OC)cc2c1=O (configuration not stated)
54) Cc1sc(NC(=O)c2ccco2)c(C(c2cccnc2)N2CCCC2)c1C (configuration not stated)
55) O=C1CCCC2=C1C(c1ccc3c(c1)OCO3)c1c(ccc3ncccc13)N2 (configuration not stated)
56) COc1ccc(CCn2c(SCc3cc(C)on3)nc3sc4c(c3c2=O)CCCC4)cc1OC
57) Cc1cccc(CN2CCN(CC(=O)N3CCN(c4cccc(C)c4)C(C)C3)C2=O)c1 (configuration not stated)
58) Cc1ccc(C)c(SC(C(=O)NC(N)=O)C(C)C)c1 (configuration not stated)
59) CCn1c(N)nc2ccccc21
60) COc1ccc(/C=C2\SC(=O)N(CCNC(=O)c3nn(C)c(=O)c4ccccc34)C2=O)cc1

Assay by compound | 51 | 52 | 53 | 54 | 55 | 56 | 57 | 58 | 59 | 60
MenB inh | -2 | 10 | 0 | -51 | -4 | -21 | -41 | 3 | . | -40
MbtI inh | -9 | 5 | -5 | 4 | -12 | -9 | -4 | -10 | -28 | 19
Polio RdRp inh intensity | 102 | 102 | 103 | 109 | 104 | 123 | 104 | 105 | 111 | 102
Polio RdRp inh | 102 | 103 | 99 | 104 | 100 | 114 | 100 | 101 | 103 | 105

61) Cc1ccc2cccc(SCc3ccc(Br)cc3)c2n1
62) COC(=O)C(C)N1C(=O)S/C(=C/c2ccc(N3CCCCCC3)o2)C1=O (configuration not stated)
63) O=C(c1cc2ccccc2cc1OCc1nnc(-c2cccs2)o1)N1CCOCC1
64) NC(=O)C12CCC(CC1)C2
65) N#Cc1cc(-c2ccc(Cl)cc2)no1
66) Cc1ccc(C(=O)CSc2nnc3[nH]c(=O)c(C)nn23)cc1
67) Cn1c(=O)c2c(nc(N3CCNCC3)n2C)n(C)c1=O
68) O=C(NCc1ccco1)c1cc(F)cc2c1OCOC2
69) Oc1c(Cl)cc(Cl)cc1C=Nc1ccc2n[nH]nc2c1
70) O=C(N/C=C/n1cnc2cc(C(F)(F)F)ccc21)c1ccco1

Assay by compound | 61 | 62 | 63 | 64 | 65 | 66 | 67 | 68 | 69 | 70
MenB inh | -1 | -47 | -15 | . | -18 | -24 | -17 | 2 | -18 | .
MbtI inh | . | 53* | 7 | -15 | -16 | 8 | 7 | -28 | -5 | -13
Polio RdRp inh intensity | 106 | 177 | 111 | 106 | 102 | 105 | 102 | 115 | 103 | 107
Polio RdRp inh | 101 | 75 | 99 | 103 | 104 | 97 | 105 | 104 | 106 | 102

71) Cc1cc(-c2ccc(C)c(S(=O)(=O)N(C)C3CCCCC3)c2)on1
72) Cc1cc(C(=O)COC(=O)c2ccc(NC(=O)CC#N)cc2)c(C)n1-c1ccc2c(c1)OCCO2
73) NC(=O)CCNCc1ccccc1
74) CN(C)S(=O)(=O)Cc1ccccc1Cl
75) Nc1ccccc1-c1nnn(CC(=O)NC2CCCC2)n1
76) CC(=O)N1CCc2ccccc2C1CN=CC1=C(O)CC(c2ccco2)CC1=O (configuration not stated)
77) C/C(=N\OCC(=O)Nn1c(=O)[nH]c2ccccc2c1=O)c1ccccc1
78) COc1ccc(CCNC(=O)Nc2ccccc2C)cc1OC
79) CC(=O)Nc1ccc(NC(=O)C(C)OC(=O)c2c(F)cccc2F)cc1 (configuration not stated)
80) O=C(Nc1ccc(C(F)(F)F)cc1)C1=NCCN1

Assay by compound | 71 | 72 | 73 | 74 | 75 | 76 | 77 | 78 | 79 | 80
MenB inh | -1 | -11 | -4 | -2 | -16 | -8 | -4 | -25 | . | 8
MbtI inh | 16 | -11 | -3 | -24 | -16 | . | 117 | -7 | 6 | 0
Polio RdRp inh intensity | 101 | 115 | 103 | 103 | 103 | 107 | 102 | 104 | 96 | 103
Polio RdRp inh | 101 | 117 | 104 | 101 | 103 | 106 | 101 | 101 | 101 | 102

Looked up one by one from the list above:
76) CC(=O)N1CCc2ccccc2C1CN=CC1=C(O)CC(c2ccco2)CC1=O (configuration not stated)
78) COc1ccc(CCNC(=O)Nc2ccccc2C)cc1OC
72) Cc1cc(C(=O)COC(=O)c2ccc(NC(=O)CC#N)cc2)c(C)n1-c1ccc2c(c1)OCCO2
80) O=C(Nc1ccc(C(F)(F)F)cc1)C1=NCCN1

Assay by compound | 76 | 78 | 72 | 80
MenB inh | -8 | -25 | -11 | 8
MbtI inh | . | -7 | -11 | 0
Polio RdRp inh intensity | 107 | 104 | 115 | 103
Polio RdRp inh | 106 | 101 | 117 | 102

Quoted from the listing:
CC(=O)Nc1ccc(NC(=O)C(C)OC(=O)c2c(F)cccc2F)cc1 (configuration not stated) in Polio RdRp inh shows 101
NC(=O)CCNCc1ccccc1 in MenB inh shows -4
C/C(=N\OCC(=O)Nn1c(=O)[nH]c2ccccc2c1=O)c1ccccc1 in Polio RdRp inh shows 101
CC(=O)N1CCc2ccccc2C1CN=CC1=C(O)CC(c2ccco2)CC1=O (configuration not stated) in Polio RdRp inh intensity shows 107

(listing goes on)
81) COc1ccc(N(C)C(=O)C2COc3ccccc3O2)cc1 (configuration not stated)
82) CC(C)(C)C(=O)N1c2ccccc2CCc2ccccc21
83) COc1ccc(N=C2SC(C(N)=O)CC(=O)N2Cc2ccccc2)cc1 (configuration not stated)
84) Cc1nc2sc(C(c3ccc(Cl)c(Cl)c3)N3CCCC3)c(O)n2n1 (configuration not stated)
85) CCN(Cc1ccc2c(c1)OCCO2)C(=O)c1ccccc1C(=O)N(C)C1CCCCC1
86) NS(=O)(=O)c1ccc(C(=O)Nc2cccc(-c3ccc4nncn4n3)c2)cc1
87) O=C1CC(c2ccc3c(c2)OCO3)c2c(c3ccccc3n(-c3ccccc3)c2=O)O1 (configuration not stated)
88) Cc1ccc(S(=O)(=O)N2CC(=O)CCc3ccccc32)cc1
89) Cc1cccc(NC(=O)c2cc3c(=O)n4ccccc4nc3s2)c1
90) Cc1cc2c(N=NC(=O)C3CC34CCC4)c(O)[nH]c2cc1Br (configuration not stated)
91) Cc1ccc(-n2nc(C)c3c(C(=O)NC4CCCC4)cc(C)nc32)cc1
92) C=CCn1c(SCc2nnc(SCC(=O)c3ccc(Cl)cc3)o2)nnc1-c1ccccc1

Assay by compound | 81 | 82 | 83 | 84 | 85 | 86 | 87 | 88 | 89 | 90 | 91 | 92
MenB inh | -7 | 9 | -31 | -9 | -7 | -18 | 13 | -6 | -5 | -53 | 16 | -29
MbtI inh | . | -5 | -6 | 13 | -8 | 28 | 19 | . | 23 | -2 | -5 | -8
Polio RdRp inh intensity | 100 | 100 | 103 | 94 | 108 | 103 | 103 | 101 | 96 | 101 | 101 | 112
Polio RdRp inh | 104 | 98 | 103 | 98 | 101 | 103 | 102 | 102 | 99 | 103 | 97 | 108

Source: PubChem BioAssay (ICCB-Longwood Screening Facility, Harvard Medical School)
